From PubChem
Six1-Eya2 blk: qHTS Assay for Inhibitors of the Six1/Eya2 Interaction; AlphaScreen GST-Six1/His-Eya2 binding, biochemical; active compounds read low; control for the full effect not named in the record; activity change, % (concentration not given with the values); 0.56% of 360,000 active; AID 651725, 2012; in the data active = activity change below about -65%; inconclusive = about -30% to -65%; inactive = above about -30%; also: % is scaled to controls: 0 for no effect and ±100 for the full control effect
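Compounds are tested against tagged Six1 and Eya2 proteins bridged by glutathione donor and nickel acceptor beads; after a one-hour incubation at 37 °C without light, AlphaScreen emission is recorded.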
gsp antag: qHTS for Antagonists of gsp, the Etiologic Mutation Responsible for Fibrous Dysplasia/McCune-Albright Syndrome: qHTS; gsp-mutant cells, cAMP HTRF, 30 min; control for the full effect not named in the record; Potency, µM (highest dose often 76.9 µM), for inactives: at the top dose activity change, negative = inhibition, usual class: inhibitors; 0.4% of 340,000 active; AID 624288, 2012; active = falling curve of any shape with a large fitted effect; inconclusive = falling curve, mostly with a smaller effect; inactive = flat or rising curve; cell line not stated here;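 also: intracellular cAMP measured with PDE inhibitor Ro 20-1724 present during compound exposure; potency is read from the fitted curve at half-maximal effect; % is scaled to controls: 0 for no effect and ±100 for the full control effect; nearly all actives have a fitted effect of over 65% in size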
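HTRF cAMP read-out (cAMP-d2 plus anti-cAMP antibody-K in lysis buffer, 30 min RT). Before lysis, cells are exposed to compounds with […] for 30 min at 37C in DPBS containing Ca/Mg, BSA and Tween 20.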
D2 ag: Beta-Arrestin HTS for Positive Allosteric Modulators of the Human D2 Dopamine Receptor: Agonists; DiscoveRx PathHunter D2 beta-arrestin, luminescence, 90 min; 100% = 57 uM dopamine signal; activation, % (test concentration not listed); 0.084% of 360,000 active; in the data active = activation above about 40%; inconclusive = about 15% to 40%; inactive = below about 15%; also: compound concentration not given in the record; the text of the record calls up to 30% inactive
Target sequence (P14416 whole entry, looked up): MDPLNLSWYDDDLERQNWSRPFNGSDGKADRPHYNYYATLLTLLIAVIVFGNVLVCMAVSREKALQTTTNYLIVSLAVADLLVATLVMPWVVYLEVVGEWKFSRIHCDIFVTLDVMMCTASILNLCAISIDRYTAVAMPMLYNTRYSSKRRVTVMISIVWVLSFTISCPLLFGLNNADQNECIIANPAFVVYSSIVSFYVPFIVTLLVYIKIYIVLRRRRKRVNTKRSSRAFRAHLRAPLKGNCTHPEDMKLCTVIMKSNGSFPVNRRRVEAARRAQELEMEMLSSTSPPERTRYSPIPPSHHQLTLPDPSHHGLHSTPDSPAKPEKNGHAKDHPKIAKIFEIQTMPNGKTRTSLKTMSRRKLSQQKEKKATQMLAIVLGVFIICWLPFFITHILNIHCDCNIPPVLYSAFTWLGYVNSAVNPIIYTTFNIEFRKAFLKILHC
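Agonist mode: compounds alone added to overnight-plated D2 PathHunter cells for 90 min at 37 C, with 57 uM final dopamine (EC100) defining full response. Beta-arrestin recruitment detected by chemiluminescent reagent, read after 1 h at ambient temperature.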
D2 potentiator: Beta-Arrestin HTS for Positive Allosteric Modulators of the Human D2 Dopamine Receptor: Potentiators. 0.23% of 360,000 active. DiscoveRx D2 beta-arrestin cells, luminescence, 90 min; 100% = 57 uM dopamine signal. D(2) dopamine receptor (Homo sapiens), P14416. potentiation, % (no concentration beside the values); active = potentiation of 50% or more; inconclusive = 30% to 50%; inactive = 30% or less;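 also: compound concentration not given in the record; tested on top of an EC20 dose of dopamine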
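D2 cells co-treated with compound plus 50 nM dopamine (EC20) for 90 min at 37 deg C to detect potentiation. Beta-arrestin recruitment was read as enzyme-fragment luminescence after 1 h at ambient temperature. Full response was set by 57 uM dopamine.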
gsp agonist: qHTS for Agonist of gsp, the Etiologic Mutation Responsible for Fibrous Dysplasia/McCune-Albright Syndrome: qHTS; gsp mutant cells, cAMP HTRF, 30 min; control for the full effect not named in the record; Potency, µM (highest dose often 76.9 µM), for the others: top-dose activation (cAMP increase), most hits filed as activators; 0.13% of 340,000 active; active = well fitted activation curve with a large enough effect; inconclusive = small, poorly fitted or top-dose-only effect, or another doubt; inactive = no such curve, though single readings can be large or run the other way; cell line not stated here;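 also: phosphodiesterase inhibitor Ro 20-1724 added with compounds to block cAMP breakdown; potency is read from the fitted curve at half-maximal effect; nearly all actives have a fitted effect of over 60% in size; about a fifth of the inactives were tested at one dose only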
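Cells in DMEM/10% FBS with G418 were pretreated with compounds in DMSO plus […] (300 uM stock) for 30 min at 37C. cAMP was measured by HTRF (cAMP-d2 plus anti-cAMP antibody-K) after 30 min at room temperature.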
CtBP-E1A inh: qHTS Assay for Inhibitors of the CtBP/E1A Interaction; CtBP / adenovirus E1A interaction (AlphaScreen); AlphaScreen GST-E1A/His-CtBP binding, 1536-well; active compounds read low; control for the full effect not named in the record; activity change, % (no concentration beside the values); 0.49% of 340,000 active; in the data active means activity change below about -65%; inconclusive means about -30% to -65%; inactive means above about -30%; also: % is scaled to controls: 0 for no effect and ±100 for the full control effect
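AlphaScreen with 125 nM GST-E1A and 125 nM His-CtBP (5X stocks) in Tris pH 8.0, 300 mM NaCl, BSA, Tween 20, TCEP. Compounds preincubated 2 h at 37 deg C, then glutathione donor/nickel acceptor beads added for 1 h at 37 deg C in dark.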
Active calls of the source: *; ? = inconclusive; / = not tested or not shown; [ ] = remark or other dose.

SMILES	Six1-Eya2 blk	gsp antag	D2 ag	D2 potentiator	gsp agonist	CtBP-E1A inh
O=c1oc(-c2ccc([N+](=O)[O-])cc2)nc2ccc(O)cc12	-4	-10%	-0.8	7	18%[15.4 µM]	0
O=C(NC(=S)N1CCOCC1)c1ccc([N+](=O)[O-])cc1	4	-2%	2.2	14	-6%	-4
N#CCSc1nnc(-c2ccc3c(c2)OCO3)o1	2	6%	-2.8	-11	-1%[15.4 µM]	0
CCC1CCC/C1=N\NC(=O)c1ccccc1C (configuration not stated)	0	-4%	-6.1	-9	-6%[15.4 µM]	-2
Cc1ccc(-c2cc[n+](Cc3ccccc3)cc2)cc1	2	8%	-4.3	-21	3%[15.4 µM]	2
O=C1N(Nc2ccccc2)C(c2ccc(Br)cc2)C12CCCCC2 (configuration not stated)	5	11%	-2.0	0	11%	6
CC1(C)CC(=O)c2c(O)cc(OCC(=O)Nc3ccc(CCO)cc3)cc2O1	0	?	6.9	-24	/	-2
Cc1coc2c(C)c3oc(=O)c(CCC(=O)N[C@H](C(=O)O)C(C)C)c(C)c3cc12	?	/	-1.5	-7	10%	?
CCCNC(=O)CN(C)CC(=O)Nc1ccccc1C#N	2	7%	-1.8	-11	5%	/
O=C(Nc1ccc(-c2cscn2)cc1)C1CCCN(Cc2ccc(CO)o2)C1 (configuration not stated)	7	3%	-4.7	-17	-6%	-4
COc1cc(Cl)ccc1OCc1cc(C(=O)N2CCN(C)C(=O)[C@@H]2C)no1	-1	/	0.0	4	-84%[inhibitor]	-1
Cc1ccc(S(=O)(=O)c2nc(C)c3c(n2)CCC3)cc1	-2	0%	-0.7	-7	-32%[inhibitor]	0
COc1cc([N+](=O)[O-])c(C)cc1NC(=O)c1ccc(OC)c(OC)c1	22	/	-5.6	-6	?	-6
CCCCNC(=O)C1(C)CCC(=O)N1C1CC1 (configuration not stated)	5	/	-2.0	-5	/	8
Nc1ccc(Oc2ccccc2F)nc1	1	2%	-6.4	-1	-59%[inhibitor]	2

In a second layout: entries from further up
canonical_smiles,Six1-Eya2 blk,gsp antag,D2 ag,D2 potentiator,gsp agonist,CtBP-E1A inh
O=c1oc(-c2ccc([N+](=O)[O-])cc2)nc2ccc(O)cc12,-4,-10%,-0.8,7,18%[15.4 µM],0
O=C(NC(=S)N1CCOCC1)c1ccc([N+](=O)[O-])cc1,4,-2%,2.2,14,-6%,-4
N#CCSc1nnc(-c2ccc3c(c2)OCO3)o1,2,6%,-2.8,-11,-1%[15.4 µM],0
CCC1CCC/C1=N\NC(=O)c1ccccc1C (configuration not stated),0,-4%,-6.1,-9,-6%[15.4 µM],-2
Cc1ccc(-c2cc[n+](Cc3ccccc3)cc2)cc1,2,8%,-4.3,-21,3%[15.4 µM],2
O=C1N(Nc2ccccc2)C(c2ccc(Br)cc2)C12CCCCC2 (configuration not stated),5,11%,-2.0,0,11%,6
CC1(C)CC(=O)c2c(O)cc(OCC(=O)Nc3ccc(CCO)cc3)cc2O1,0,?,6.9,-24,/,-2
Cc1coc2c(C)c3oc(=O)c(CCC(=O)N[C@H](C(=O)O)C(C)C)c(C)c3cc12,?,/,-1.5,-7,10%,?
CCCNC(=O)CN(C)CC(=O)Nc1ccccc1C#N,2,7%,-1.8,-11,5%,/
O=C(Nc1ccc(-c2cscn2)cc1)C1CCCN(Cc2ccc(CO)o2)C1 (configuration not stated),7,3%,-4.7,-17,-6%,-4
COc1cc(Cl)ccc1OCc1cc(C(=O)N2CCN(C)C(=O)[C@@H]2C)no1,-1,/,0.0,4,-84%[inhibitor],-1
Cc1ccc(S(=O)(=O)c2nc(C)c3c(n2)CCC3)cc1,-2,0%,-0.7,-7,-32%[inhibitor],0
COc1cc([N+](=O)[O-])c(C)cc1NC(=O)c1ccc(OC)c(OC)c1,22,/,-5.6,-6,?,-6

(further entries)
SMILES	Six1-Eya2 blk	gsp antag	D2 ag	D2 potentiator	gsp agonist	CtBP-E1A inh
COc1ccc(C2(C(=O)N3CCOCC3)CCCC2)cc1	-6	-5%	-0.7	22	-34%[inhibitor]	9
O=C(Cn1ncc2c3ccccc3n(Cc3ccccc3F)c2c1=O)NCCN1CCOCC1	3	-6%	-5.6	-5	20%	/
CC(=O)NC12CC3CC(CC(CC(=O)O)(C3)C1)C2	21	16%	-2.6	10	0%	0
Cc1ccc(NC(=O)c2ccc3c(c2)CCN3S(C)(=O)=O)cc1C	4	-13%	4.4	0	?	1
CC(C)Cc1c(O)nc(SCCN2CCOCC2)[nH]c1=O	0	-19%	-2.3	-6	-24%	3
O=c1sc2ccccc2n1COc1ccccc1	47	?	0.6	1	-15%	49
N#C/C(=C\c1ccc(OCC(N)=O)cc1)C(=O)NC1CC1	1	4%	2.1	3	2%	-1
O=C(O)CN1C(=O)SC(Nc2ccc(Cl)cc2)C1=O (configuration not stated)	0	-5%	-2.2	6	-3%	2
COc1ccc(CNC(=O)COC(=O)c2ccc(S(=O)(=O)N3CCCCC3)cc2)cc1	0	4%	-1.7	-13	-58%	3
O=C(O)CN=C1CC(c2ccccc2)CC(=O)/C1=C(/O)CCCN1C(=O)c2ccccc2C1=O (configuration not stated)	7	3%	-1.7	1	-37%[inhibitor]	7
CCCC(=O)N1CCN(c2ccc(NC(=O)C(C)(C)C)cc2Cl)CC1	1	-10%	5.4	-11	-8%	9
CCOc1ncnc2c1oc1nc(CC(C)C)c3c(c12)CC(C)(C)OC3	4	-12%	0.1	3	?	-2
COc1ccc(OC)c(C2(O)CSC(=Nc3cccnc3)N2Cc2ccco2)c1 (configuration not stated)	-14	-17%	-0.1	6	0%[15.4 µM]	0
COc1ccc(N(CC(=O)NCCSC2CCCCC2)S(=O)(=O)c2ccc(C)cc2)cc1	13	2%	-2.8	-7	-21%	-1
Nn1cnnc1N/N=C/c1ccc(Cl)c([N+](=O)[O-])c1	-24	-14%	?	11	23%	?
CCN(CCCNC(=O)Cn1ncc2c(=O)oc3ccccc3c21)c1cccc(C)c1	-11	-13%	-1.6	-12	?	-13
Cc1nc(Cl)sc1C(=O)Nc1cccc(Cl)c1	8	4%	-3.7	-5	15%	0
CN(Cc1ccon1)C(=O)CC1C(=O)NCCN1Cc1ccc(F)c(F)c1 (configuration not stated)	11	7%	-4.8	-5	-1%[15.4 µM]	-1
Cc1ccc(S(=O)(=O)/N=C2\C=C(NS(=O)(=O)c3ccc(C)cc3)C(=O)c3ccccc32)cc1	2	/	-0.6	2	-28%	1
NC(=S)Cc1nc(-c2ccccc2)cs1	6	9%	-12	-37	-7%	7
COc1cc(C(=O)N2CCN(S(=O)(=O)c3ccc(C)cc3)CC2)ccc1OCc1c(C)noc1C	-1	-17%	-3.2	-14	28%	3
O=C(CSc1ncn[nH]1)NN(c1ccccc1)c1ccccc1	4	4%	-2.1	-2	-35%	1
CCOc1ccc2[nH]c(C)cc(=O)c2c1	-1	8%	-2.3	-2	-33%	3
CC(C)NC(=O)c1ccccc1NC(=O)CN(c1ccc2c(c1)OCO2)S(C)(=O)=O	3	-9%	0.1	-1	-28%	2
COc1ccc(NC(=O)N(C)C[C@H]2Oc3c(NS(=O)(=O)c4cccs4)cccc3C(=O)N([C@@H](C)CO)C[C@@H]2C)cc1	-1	0%	-0.3	4	/	4
Cn1c(COc2ccc([N+](=O)[O-])cc2)nnc1SCC(N)=O	-3	2%	0.9	8	14%[15.4 µM]	7
O=c1oc(-c2ccccc2)nc2c1cnn2-c1ccccc1	3	4%	0.4	-3	-11%	8
COc1ccc(/C=C2\Sc3ccc(C(=O)NCCCN4CCCC4)cc3N(C)C2=O)cc1OC	-13	-7%	6.1	-15	-11%	/
CCOC(=O)C1=CN(Cc2cccc(Br)c2)S(=O)(=O)N(CC)C1C (configuration not stated)	11	-2%	2.1	/	/	23
Cc1cc(OCC(=O)Nc2ccc(N3CCCC3)cc2)cc(C)c1Cl	-19	1%	4.9	-24	-4%	-4
CSc1ccc(Cl)c(C(=O)OCC(=O)NCC(C)C)c1	2	-4%	-1.2	-8	-21%	-7
CC(Sc1nnc(NC2CC2)s1)C(=O)Nc1ccc(N2CCOCC2)cc1 (configuration not stated)	-1	-4%	-0.9	9	-7%	0
O=c1[nH]c(C(F)(F)F)nc2ccc3ccccc3c12	-15	-11%	-3.5	-7	-4%[15.4 µM]	-13
CC(=O)C1(O)CCC2C3CC(C)C4=CC(=O)C=CC4(C)C3(F)C(O)CC21C (configuration not stated)	1	-3%	-1.1	-4	0%	6
OCCNc1ncnc2c1ncn2[C@H]1CN(Cc2cccs2)C[C@@H](CO)O1	2	/	-3.2	-15	/	2
COc1ccc(Nc2cc(=O)n(-c3ccccc3)c3c2c(=O)n(C)c(=O)n3C)cc1	-10	-11%	-2.7	-1	8%	8
CCOC(=O)C(Cc1ccccc1)C(=O)Nc1cccc2ccccc12 (configuration not stated)	1	6%	-4.9	-2	-29%	3
COc1ccc(CCNc2ncnc3nc[nH]c23)cc1OC	15	-10%	0.5	4	11%	23
O=C(OCC(=O)N1CCN(C(=O)c2ccco2)CC1)c1cn(-c2ccccc2)nc1-c1ccccc1	12	-17%	-3.2	-17	-1%	21
CCn1c(SCC(N)=O)nc2ccccc2c1=O	3	1%	-0.3	-10	7%	10
CC(C)CN(C(=O)CCC(=O)OC(C)C(=O)Nc1cccc(C#N)c1)c1c(N)n(CC(C)C)c(=O)[nH]c1=O (configuration not stated)	5	1%	-3.4	-1	15%[15.4 µM]	-10
O=C(c1cc2sccc2n1Cc1ccccc1)N1CCN(c2nc3ccccc3s2)CC1	-16	-17%	-1.1	-17	7%	-19
O=C(Nc1nc(-c2ccc3c(c2)OCCO3)cs1)c1ccc(Br)o1	-12	/	-1.4	-23	-102%[inhibitor]	-12
Cn1c(=O)c2c(nc(NCc3ccco3)n2Cc2ccc(Cl)cc2Cl)n(C)c1=O	8	14%	0.7	9	26%	9
Cc1ccc(N2CC(=O)N(NC(=O)CN3CCN(c4ccccc4)CC3)CC2=O)cc1	3	13%	-2.2	-7	5%	5
O=C(c1cc2c(ccc3ccccc32)o1)N1CCN(c2ncc(C(F)(F)F)cc2Cl)CC1	-1	0%	-1.1	-31	0%	0
Cc1nc(SCC(=O)N(C)C2CCCCC2)[nH]c(=O)c1Cc1ccccc1	4	-4%	2.3	0	-38%[inhibitor]	11

Random draw from the library; 1.4% or so of the library scored in one or more.
